Screening results deposited in PubChem BioAssay by several laboratories.
Bfl-1 A1 inh: inhibitors of the anti-apoptotic protein A1, read as caspase activation | AID 2462 | MEF A1-2A-BIM cells, Caspase-Glo 3/7 luminescence, 3 h; percent of clofoctol response, vehicle zero | caspase activation, % (concentration not given with the values) | hit rate 0.066% among 330,000;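 active means over half of replicate activation scores above 10%, or exactly half above 10 with the replicate mean above 10; inconclusive means replicate mean below 10 yet half the replicates above 10; inactive means over half of replicates below 10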;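 further: wells of about 30 µL received 50 nL stock; many hits fall short of the cut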
B2AR ag: activates human beta-2 adrenergic receptor causing internalization; AID 504454; hit rate 0.43% among 340,000; response, % (concentration not given with the values); P07550; Am2.2-beta2AR cells, FAP receptor internalization, flow cytometry; reference of the scale not given here;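 active means response above a set limit, near 3 SD of response in nonfluorescent compounds, cut at about 42% in these data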;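 further: stock transfer was 100 nL into about 11 µL; a reference agonist was the positive control; negative values mostly stem from fluorescent compounds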
Target sequence (P07550 whole entry, looked up): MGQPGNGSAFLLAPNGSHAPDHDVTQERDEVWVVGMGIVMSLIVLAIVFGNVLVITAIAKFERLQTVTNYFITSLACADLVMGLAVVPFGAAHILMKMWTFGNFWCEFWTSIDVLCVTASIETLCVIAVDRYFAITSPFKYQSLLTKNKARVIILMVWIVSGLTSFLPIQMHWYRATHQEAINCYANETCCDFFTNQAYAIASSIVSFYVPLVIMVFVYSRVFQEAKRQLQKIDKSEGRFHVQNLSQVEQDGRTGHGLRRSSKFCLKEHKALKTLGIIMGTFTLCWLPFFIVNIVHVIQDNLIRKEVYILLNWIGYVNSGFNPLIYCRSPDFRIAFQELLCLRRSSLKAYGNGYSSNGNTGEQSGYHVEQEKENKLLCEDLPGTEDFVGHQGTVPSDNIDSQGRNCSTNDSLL
LANA-H2B inh: blocks KSHV LANA binding to histone H2A/H2B; Q9QR71; cell-free LANA-H2A/H2B peptide, fluorescence polarization; inhibition, % (concentration not given with the values); hit rate 0.6% among 320,000; AID 2629; in the data active means inhibition mostly above about 10%, no sharp cut-off; inactive means mostly below about 6.7%;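 further: stock transfer was 7.5 nL into about 10 µL; 0% = median of vehicle wells and 100% = median of positive control wells; one replicate is shown; the record names a cut of 25% in any replicate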
Vif A3G: HIV-1 Vif–A3G interaction blockers – biochemical, TR-FRET, GST-Vif 1-94, biotin-A3G peptide, dose response retest, primary screen (AID 1117319); TR-FRET GST-Vif / biotin-A3G peptide binding; higher % means a stronger effect; test concentration not given here; strong numbers were not always called active; inhibition, %, or IC50 in µM where a hit was titrated; hit rate 0.57% among 260,000;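 active means above the screen mean plus three standard deviations and confirmed in dose response; inconclusive means results disagree or hit not tested in dose response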;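 further: Vif residues 1-94 fused to GST binding biotinylated APOBEC3G peptide 110-148; 0% = full assay without inhibitor and 100% = GST in place of GST-Vif; retest series ran down from 100 µM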
HNF4A DNA FP: change in binding of human HNF4 alpha to DNA; HNF4a-FITC DNA binding, fluorescence polarization, 1 h; hit rate 0.3% among 360,000; P41235; activity change, % at 10 µM; in the data active means activity change above about 30%, passing the limit was not always enough;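 further: controls were the assay level and a saturating level of protein; the project sought stronger binding though the title names inhibitors; some compounds called inactive have numbers as strong as hits; positive values seem to mean higher polarization but the record does not say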
Ecoli growth: inhibitors of Escherichia coli growth; hit rate 0.21% among 330,000; OD600 absorbance (no concentration beside the values); OD600, 23 h; hits give low values;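 active means OD600 absorbance below the run mean of sample wells minus 3.6 SD, in any replicate, cut at about 0.56 in these data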;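 further: stock transfer was 300 nL into about 60 µL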
UCH37 DUB inh: inhibitors of human deubiquitinating enzyme UCH37. Q9Y5K5. purified proteasome/UCH37, Ub-AMC cleavage fluorescence. inhibition, % (no concentration beside the values). hit rate 0.33% among 330,000. AID 588478;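 active means mean of two replicates above 20%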;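 further: 0% = compound-free wells with enzyme and 100% = wells lacking proteasome; stock transfer was 100 nL into about 20 µL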
Target sequence (Q9Y5K5 whole entry, looked up): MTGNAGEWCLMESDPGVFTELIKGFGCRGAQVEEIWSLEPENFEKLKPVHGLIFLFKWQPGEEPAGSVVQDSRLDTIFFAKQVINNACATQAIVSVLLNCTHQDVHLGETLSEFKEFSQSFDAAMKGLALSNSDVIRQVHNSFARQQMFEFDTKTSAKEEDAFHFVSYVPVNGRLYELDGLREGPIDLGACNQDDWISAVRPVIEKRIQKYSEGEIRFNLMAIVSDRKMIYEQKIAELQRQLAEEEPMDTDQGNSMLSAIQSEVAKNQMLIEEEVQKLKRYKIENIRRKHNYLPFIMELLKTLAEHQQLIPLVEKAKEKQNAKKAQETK
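assay system = human UCH37 enzyme supplied as purified proteasome complex | amount = proteasome at 0.15 nM in the dispensed enzyme solution | schedule = 30 min compound-proteasome preincubation then 25 min substrate reaction, room temperature | measured by = fluorescence, ex 355 nm, em 460 nm | benchmarks = no-proteasome wells (full inhibition) and compound-free wells (no inhibition)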
Numbers without * were called inactive; ? = inconclusive; . = not tested or not shown; & = joins results of further samples.

no.	SMILES	Bfl-1 A1 inh	B2AR ag	LANA-H2B inh	Vif A3G	HNF4A DNA FP	Ecoli growth	UCH37 DUB inh
1	O=C(NCc1cccnc1)C(=O)NCC(c1ccco1)N1CCN(c2ccccc2F)CC1 (stereo unspecified)	0.1	-1	-0.5	12%	-2.6	0.68	4.8
2	Cc1onc(-c2c(F)cccc2Cl)c1C(=O)N1CCc2ccccc21	0.8	1	66*	1%	1.7	0.65	0.2
3	CCOc1ccccc1C(=O)N/N=C/c1c[nH]c2ccccc12	1.4	-10	5.1	10%	-2.4	.	.
4	CCOc1ccc(S(=O)(=O)N2CCN(C(=O)c3cccnc3)CC2)cc1	-0.3	-2	5.5	.	0.1	0.7	2.1
5	CC(C)(C)OC(=O)NC(CCCCNC=O)C(=O)O (stereo unspecified)	0.5	6	8.4	0%	4.7	0.72	3.5
6	O=C(CCC1CCCN(C(=O)c2ccc3cc[nH]c3c2)C1)N1CCN(c2ccccn2)CC1 (stereo unspecified)	-0.7	-1	0.0	-2%	2.1	0.66	0.0
7	C=CCn1c(O)c2ccc(C(=O)N=NC(=O)c3ccc(F)cc3)cc2c1O	-0.3	-1	1.2	-7%	0.4	0.69	1.4
8	Cc1nc(SCC(=O)N2CCOCC2)c2c(C)c(C)sc2n1	0.4	-3	-1.9	-4%	1.6	0.65	0.6
9	Cc1ccc2c(c1)cc(CN(C(=O)N1CCOCC1)C1CCCC1)c1nnnn12	0.7	-3	-3.8	-8%	-2.9	0.66	2.1
10	COc1ccc(OC)c(S(=O)(=O)Nc2ccccc2C(F)(F)F)c1	0.3	-2	4.5	26%	13	0.61	0.9
11	O=C(Cc1c(F)cccc1Cl)N1CCN(S(=O)(=O)c2cccs2)CC1	0.6	0	-1.3	-11%	1.4	0.68	0.0
12	COc1ccc(-c2csc(NC(=O)CSc3nnc(Nc4ccccc4C)s3)n2)cc1	-0.8	0	-5.8	.	12	0.72	1.1
13	CC(Oc1ccc2c3c(c(=O)oc2c1)CCCC3)C(=O)NCc1cccnc1 (stereo unspecified)	0.7	-13	1.2	1%	3.2	0.71	-74
14	CCc1cccc(CC)c1NC(=O)COC(=O)c1cccc(S(=O)(=O)N2CCc3ccccc3C2)c1	0.8	-1	1.9	-7%	-1.3	0.68	2.7
15	N#Cc1c(-c2ccc3c(c2)OCO3)csc1N	-0.5	15	-2.8	20%	6.0	0.64	1.8

(listing goes on)
no.	SMILES	Bfl-1 A1 inh	B2AR ag	LANA-H2B inh	Vif A3G	HNF4A DNA FP	Ecoli growth	UCH37 DUB inh
16	CCCSc1ccc([C@H]2N[C@@](C)(C(=O)OC)[C@H]3C(=O)N(C)C(=O)[C@@H]23)cc1OC	-0.1	-3	-2.7	.	2.0	.	-0.6
17	O=C1NC(=S)S/C1=C\c1coc2ccc(O)cc2c1=O	-2.4	-11	6.6	?	7.5	0.65	8.6
18	Cc1ccc(O)c(NC(=O)C2=CC(c3ccco3)=NS(=O)(=O)N2C)c1	0.4	3	-1.5	-6%	2.0	0.73	13
19	C=CCn1c(=NC(=O)CN2C(=O)CCC2=O)sc2cc(S(N)(=O)=O)ccc21	0.1	-6	4.5	5%	-1.3	0.66	5.6
20	C(=C\c1ccccc1)/C=N/n1cnnc1	2.1	-5	0.8	18%	-0.4	.	.
21	C=CCn1c(C(c2ccccc2)c2ccccc2)n[nH]c1=S	1.7	-1	-0.2	-6%	2.6	0.72	2.2
22	CC(C)[C@H](CO)Nc1nc(Nc2ccc(Cl)c(C(=O)O)c2)c2ncn(C(C)C)c2n1	1.9	-5	-4.4	.	-2.7	.	4.6
23	O=C(Nc1cccc(F)c1)c1ccc(Cn2cc([N+](=O)[O-])cn2)o1	0.2	-4	-3.1	.	0.6	0.61	-0.2
24	CCOc1ccccc1NC(=O)CSc1nnc2ccc(-c3ccncc3)nn12	-0.6	5	3.5	-2%	-0.1	0.73	2.5
25	CCN(CC)C(=O)CN1C(=O)C(=O)c2ccccc21	0.6	12	-6.8	-10%	1.1	0.66	2.2
26	N#C/C(=C(/O)c1ccc(F)cc1)c1nc2ccccc2s1	-0.2	21	5.9	4%	3.2	.	.
27	CC1(C)NC(=O)N(CC(=O)OCC(=O)Nc2cccc(S(N)(=O)=O)c2)C1=O	0.6	-18	3.4	-6%	3.3	0.68	0.7
28	CCn1cc(C2=NC(CCSC)CO2)c2ccccc21 (stereo unspecified)	-0.3	-7	3.2	.	-0.5	0.75	2.1
29	Cc1c(N=Cc2ccccn2)c(=O)n(-c2ccccc2)n1C	0.1	-1	1.8	18%	0.6	0.66	6.3
30	Brc1cccc(OCCN2CCc3ccccc3C2)c1	0.2	-2	-4.1	.	2.5	0.57	1.8

Next records:
no.	SMILES	Bfl-1 A1 inh	B2AR ag	LANA-H2B inh	Vif A3G	HNF4A DNA FP	Ecoli growth	UCH37 DUB inh
31	CN(C)c1ccc(CN(CC2CCCO2)C(=O)c2cc3ccccc3o2)cc1 (stereo unspecified)	.	2	.	2%	1.2	0.71	0.9
32	CCOC(=O)Nc1ccc(C)cc1Br	0.5	3	1.5	0%	-3.0	0.68	4.4
33	Cc1ccc(NC(=O)C(C)OC(=O)CCNS(=O)(=O)c2ccc(C)cc2)cc1 (stereo unspecified)	0.0	-3	7.3	-8%	1.4	0.66	1.3
34	CCNc1nc(NC(C)C)nc(OCCOC(=O)Nc2ccccc2)n1	-2.8	-8	5.5	.	6.2	0.7	-0.7
35	Cn1cnc([N+](=O)[O-])c1Sc1nc(N)nc2c1ncn2C1OC(CO)C(O)C1O (stereo unspecified)	.	1	.	-11%	-6.2	.	.
36	N#CNC(=Nc1cccc(F)c1)SCc1ccccc1F	1.4	12	-0.5	3%	1.8	0.67	7.9
37	COc1cccc2c1OC1(C)CC2NC(=O)N1c1cccc(C(=O)N2CCN(c3ccccc3)CC2)c1 (stereo unspecified)	0.1	0	0.8	8%	1.5	0.7	0.4
38	Cc1ccc(NC(=O)c2ccccc2NC(=O)c2cccs2)cc1	0.0	3	6.2	.	5.3	0.7	-2.1
39	Cc1ccc2c(C(=O)CN3CCN(C(=O)c4ccco4)CC3)c(C)[nH]c2c1	1.2	-3	0.2	17%	-0.7	0.68	5.8
40	COC(=O)/C=C/S(=O)(=O)c1ccc(NC(C)=O)cc1	-0.4	21	1.9	-5%	-2.5	0.66	4.1
41	COc1cccc(S(=O)(=O)NCC(=O)N2CCCCCC2)c1	0.0	-6	-2.9	.	-1.6	0.66	0.8
42	NC(=O)COc1ccc(=O)n(-c2ccccc2)n1	-0.1	8	5.0	13%	-1.0	0.69	3.0
43	CCOc1ccccc1NC(=O)CCCc1ccc(OC)c(C)c1	0.5	1	0.7	.	3.3	0.65	5.4
44	C/C(Nc1ccc(F)cc1)=C(/C#N)C(N)=O	-0.1	-10	-1.1	6%	-4.2	0.72	3.4
45	Cc1cc(C(=O)CCl)c(C)n1Cc1ccco1	-2.2	7	-2.5	?	-4.7	0.7	2.7

(cont.)
no.	SMILES	Bfl-1 A1 inh	B2AR ag	LANA-H2B inh	Vif A3G	HNF4A DNA FP	Ecoli growth	UCH37 DUB inh
46	CC1CCCCN1C(=O)COC(=O)c1cc([N+](=O)[O-])ccc1N1CCOCC1 (stereo unspecified)	0.7	11	1.2	3%	0.2	0.7	9.4
47	CCOC(=O)C1CCCN(C(=S)Nc2ccc(OC)cc2)C1 (stereo unspecified)	1.9	-8	-1.8	10%	-0.4	0.63	2.3
48	CCn1c(N)c(C(=O)NCC2CCCO2)sc1=S (stereo unspecified)	-0.4	-3	-1.1	4%	-0.2	0.71	5.5
49	COc1ccc(CNS(=O)(=O)c2c(C)[nH]c(C)c2C(=O)N2CCCCC2)cc1	1.0	-2	1.1	-4%	2.8	0.65	2.2
50	CC(Sc1nnc(CNC(=O)c2ccccc2F)n1C)C(=O)Nc1nccs1 (stereo unspecified)	-0.6	-4	2.8	2%	-2.1	0.64	-0.3
51	COc1cc(/C=N\Nc2ccc([N+](=O)[O-])cn2)ccc1OCC(=O)O	-0.8	.	3.5	?	.	.	.
52	O=C(NCc1ccccc1Cl)C1CCC(CNc2c(N3CCOCC3)c(=O)c2=O)CC1 (stereo unspecified)	-0.2	-4	6.1	16%	-0.8	0.7	1.0
53	CC1(C)CC2CC(C)(CN2S(=O)(=O)c2cccc(C(N)=O)c2)C1 (stereo unspecified)	-0.6	3	-0.3	-9%	-0.9	0.67	2.0
54	Cc1ccccc1-c1nc(CN2CCC(C(=O)NCc3cccnc3)CC2)c(C)o1	-0.5	8	4.3	-5%	5.5	0.71	-0.5
55	COc1cc(C2/C(=C(/O)c3ccccc3)C(=O)C(=O)N2c2ccccn2)ccc1O (stereo unspecified)	-1.3	6	2.4	3%	2.4	0.67	12
56	Nc1ccccc1NC(=O)NC(=O)c1ccccc1	-2.1	-2	-1.0	.	-4.5	0.65	5.6
57	O=C(N1CCCC1)N1CCN(S(=O)(=O)c2ccccc2)CC1	0.2	-5	-1.2	.	0.6	0.69	4.0
58	O=C(COc1ccc(F)cc1)N1c2ccccc2CCc2ccccc21	1.1	39	2.5	11%	0.8	0.69	2.7
59	Nc1nc(N)nc(-c2ccccc2)n1	-0.9	7	-2.7	3%	5.2	0.65	1.8
60	O=C1C(NS(=O)(=O)c2cccs2)=C(N2CCN(c3cccc(C(F)(F)F)c3)CC2)C(=O)c2ccccc21	0.3	-1	2.9	29%&16%	-3.3	0.77	3.5

Compound profiles, as listed above.
NC(=O)COc1ccc(=O)n(-c2ccccc2)n1 as listed: Bfl-1 A1 inh = -0.1; B2AR ag = 8; LANA-H2B inh = 5.0; Vif A3G = 13%; HNF4A DNA FP = -1.0; Ecoli growth = 0.69; UCH37 DUB inh = 3.0
CC1(C)NC(=O)N(CC(=O)OCC(=O)Nc2cccc(S(N)(=O)=O)c2)C1=O as listed: Bfl-1 A1 inh = 0.6; B2AR ag = -18; LANA-H2B inh = 3.4; Vif A3G = -6%; HNF4A DNA FP = 3.3; Ecoli growth = 0.68; UCH37 DUB inh = 0.7
COc1cc(C2/C(=C(/O)c3ccccc3)C(=O)C(=O)N2c2ccccn2)ccc1O (stereo unspecified) as listed: Bfl-1 A1 inh = -1.3; B2AR ag = 6; LANA-H2B inh = 2.4; Vif A3G = 3%; HNF4A DNA FP = 2.4; Ecoli growth = 0.67; UCH37 DUB inh = 12

Carrying on:
no.	SMILES	Bfl-1 A1 inh	B2AR ag	LANA-H2B inh	Vif A3G	HNF4A DNA FP	Ecoli growth	UCH37 DUB inh
61	O=C(Nc1cccc(S(=O)(=O)N2CCCCC2)c1)C1CC(=O)N(Cc2ccccc2)C1 (stereo unspecified)	-0.5	0	1.8	4%	0.3	0.68	1.5
62	Fc1ccccc1-c1nc2nc3ccccc3nc2n1CC1CCCO1 (stereo unspecified)	-0.1	-3	-3.3	-3%	1.2	0.68	-233
63	Cc1cccc(C2Nc3ccccc3C(=O)N2NC(=O)c2ccc([N+](=O)[O-])cc2)n1 (stereo unspecified)	1.0	-1	13	3%	-0.7	0.69	4.5
64	O=[N+]([O-])c1cc(Cl)ccc1Sc1ccccn1	0.3	-6	-0.5	.	-0.1	0.69	2.3
65	O=C(COC(=O)C1CC(=O)N(Cc2ccccc2)C1)Nc1ccc(Cl)cc1F (stereo unspecified)	-0.3	-2	6.3	12%	-4.0	0.67	4.5
66	CC[C@@H](C)CN1C(=O)N[C@@H](CCc2ccccc2)C(C(C)=O)=C1C	0.3	2	-0.7	-5%	3.2	.	1.6
67	CN1CCN(/N=C/c2ccc(Cl)c(Cl)c2)CC1	-0.7	1	6.7	3%	1.6	.	.
68	CCOc1cc(/C=C2\CN(C)C/C(=C\c3ccc(O)c(OCC)c3)C2=O)ccc1O	0.2	46*	-12	6%	1.4	0.63	5.9
69	O=C(Nc1ccc(N2CCOCC2)nc1)c1ccc(C(F)(F)F)cc1	0.3	8	3.5	-7%	-3.1	0.71	-1.8
